GLA inh pH 4.5: qHTS Assay for Inhibitors of Human alpha-Galactosidase at pH 4.5; 230,000 tested, under 10 active; Alpha-galactosidase A (Homo sapiens), P06280; purified enzyme, 4-MU-alpha-Gal fluorescence, pH 4.5; activity change, negative = inhibition, % at 105 µM; inconclusive = small, poorly fitted or top-dose-only inhibition, or a rising curve; inactive = flat fitted curve, though single readings scatter; no compound was filed as active;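 further: 0% = full activity with enzyme and -100% = basal without enzyme; dose as in the result columns while the protocol names 77 µM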
Target sequence (P06280 whole entry, looked up): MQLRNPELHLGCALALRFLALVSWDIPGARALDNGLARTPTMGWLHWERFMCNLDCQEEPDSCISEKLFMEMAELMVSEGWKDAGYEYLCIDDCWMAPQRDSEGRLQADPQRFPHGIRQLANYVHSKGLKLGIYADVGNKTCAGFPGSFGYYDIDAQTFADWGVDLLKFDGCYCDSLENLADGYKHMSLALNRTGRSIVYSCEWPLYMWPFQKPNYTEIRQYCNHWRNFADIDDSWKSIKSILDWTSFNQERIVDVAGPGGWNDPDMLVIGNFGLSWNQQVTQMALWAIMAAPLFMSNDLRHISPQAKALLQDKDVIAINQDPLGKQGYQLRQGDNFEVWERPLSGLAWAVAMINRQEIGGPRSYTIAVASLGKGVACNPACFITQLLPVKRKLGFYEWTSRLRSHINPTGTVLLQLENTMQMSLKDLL
miR-21 reporter: qHTS Assay for Modulators of miRNAs and/orActivators of miR-21; HeLa miR-21 FLuc reporter, luciferase, 48 h; Potency, µM (highest dose often 38.3 µM), for the others: at the highest dose reporter change, positive = more light; 340,000 tested, under 10 active; active = well fitted rising curve with a large enough effect; inconclusive = small, poorly fitted or top-dose-only effect; inactive = no such curve, though single readings can be large or run the other way;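 further: % of control where 0% means no effect; miR-21 action dims this reporter so a rising signal means less miR-21 action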
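Using DMEM plus 10% FBS, HeLa miR-21-FLuc cells are incubated with test compounds (final up to about 40uM) for 48 hours; firefly luciferase signal is then imaged following reagent-mediated lysis.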
Rango release inh: qHTS Assay for Inhibitors of RanGTP induced Rango (Ran-regulated importin-beta cargo) - Importin beta complex dissociation; Biochemical FRET Rango-importin beta, RanGTP-induced dissociation; Potency, µM (doses to about 46.1 µM), for the others: at the top dose activity change, negative = inhibition; hit rate 0.071% among 340,000; AID 540253, 2011; active means falling FRET ratio curve, often poorly fitted, with flat reads before Ran was added; inconclusive means other falling curves, or compound fluorescence or quenching; inactive means flat or rising ratio curve;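 further: potency means the concentration at half of the fitted maximal effect; % of control where 0% means no effect; nearly all actives have a fitted effect of over 45% in size; -100% = wells without RanGTP and RCC1; the record marks most hits as doubtful in a second field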
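Rango (0.1 uM)–importin beta (0.25 uM) complex; RanGTP-RCC1 trigger; 45 min RT; CFP/YFP FRET read.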
Rango complex inh: qHTS Assay for Inhibitors of Rango (Ran-regulated importin-beta cargo) - Importin beta complex formation; Potency, µM (top dose mostly 92.2 µM), without a hit: at the highest dose inhibition of complex formation; Importin subunit beta-1 (Homo sapiens), Q14974; hit rate 0.031% among 340,000; AID 540263, 2011; Rango CFP/YFP FRET sensor + importin beta, 45 min; active = rising FRET ratio curve, often small or poorly fitted; inconclusive = mostly compound fluorescence or quenching in the first reads; inactive = flat curves in all reads;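 further: potency means the concentration at half of the fitted maximal effect; 0% = DMSO wells and 100% = buffer wells lacking importin beta; nearly all actives have a fitted effect of over 15% in size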
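FRET biosensor (snurportin 1 IBB flanked by EYFP and cerulean), 50 nM, with compound 5 min, then 0.125 microM importin beta in PBS, 1 mM DTT, 0.02% Tween-20, 0.1% BSA. CFP/YFP ratio read after 45 min at room temperature; pre-read flags interference.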
* = called active by the depositor; ? = inconclusive; · = no result given; & = joins results of further samples. An excerpt; the hit share may differ from the screen's.

SMILES | GLA inh pH 4.5 | miR-21 reporter | Rango release inh | Rango complex inh
CC1(C)NC(=O)N(CC(=O)N2CCN(S(=O)(=O)c3ccccc3F)CC2)C1=O | · | · | -9.5% | ?
COc1cc(CC(CC(=O)c2ccc3c(c2)OCO3)C(=O)O)cc(OC)c1OC (stereo not given) | · | · | 11.4% | 2.3%
CC1(C(=O)N(CC(=O)NC2CCCC2)Cc2ccc(Cl)cc2)CC(=O)N=C2C=CC=CN21 (stereo not given) | · | 0.5% | 14.7% | 1.1%
CCOC(=O)/C=C1\SCC(=O)N1CC(=O)Nc1ccc(C(C)C)cc1 | 4.3 | -8.7% | -7.3% | 0.2%
COc1ccc(S(=O)(=O)Nc2ccc3c(c2)C(=O)N([C@H](C)CO)C[C@H](C)[C@@H](CN(C)S(=O)(=O)c2ccc(F)cc2)O3)cc1 | · | · | -2.6% | -1.6%
O=C(O)CCc1ccc(-c2cccs2)n1Cc1ccco1 | 4.0 | -0.6% | -13.1% | ?
CC(C#N)(NC(=O)CN1CCN(S(=O)(=O)c2ccc(Br)cc2Cl)CC1)C1CC1 (stereo not given) | · | · | 0.4% | 0.2%
CCOc1ccc(C2CC(c3ccc(F)cc3)n3ncnc3N2)cc1 (stereo not given) | 5.7 | -7.1% | ? | ?
Cc1cc(C)c2c(n1)nn1c(N3CCN(c4ccccc4C)CC3)cc(C)nc21 | · | · | -15.6% | ?
CCCCc1ccc(Nc2ncccc2C#N)cc1 | 3.9 | -48.1% | 19.6% | 8.1%
NC(=NCCc1ccccc1)NS(=O)(=O)c1ccccc1F | · | 0.2% | 2.3% | 0.1%
CS(=O)(=O)N(Cc1ccccc1)c1ccccc1C(=O)N1CCN(c2ccccc2)CC1 | -0.6 | 7.1% | -2.1% | 2.0%
COc1ccc(OC)c(NC(=O)c2cccc(NC(=O)c3ccccc3C(=O)O)c2)c1 | · | -3.5% | ? | 3.4%
CCS(=O)(=O)C1=NSC2=NC(=O)/C(=C\c3ccc(OC(=O)c4ccco4)c(OC)c3)C(=N)N21 | · | -0.8% | ? | ?
CN(CC(=O)NCc1ccccc1)CC(=O)Nc1ccc(Cl)c(C(F)(F)F)c1 | · | · | 20.4% | -3.0%
NNC(=O)CN1C(c2ccc(Br)cc2)=Nc2ccc(Br)cc2C1c1ccccc1 (stereo not given) | -14.6 | -4.6% | -8.6% | -2.3%
Nc1nonc1C(=O)NCCNCc1ccccc1OCc1ccccc1F | 2.1 | 3.2% | 1.1% | -2.5%
Cc1ccsc1/C=N/n1c(-c2ccccc2)n[nH]c1=S | 1.6 | -6.3% | 11.1% | -1.8%
CCCCn1c(-c2ccc(F)c(F)c2)nc2cc3[nH]c(=O)c(C(C)C)nc3cc21 | · | 13.0% | ? | ?
CSCCC(NC(=O)c1ccco1)C(=O)N1CCN(C(c2ccccc2)c2ccccc2)CC1 (stereo not given) | · | · | 17.2% | 2.6%

Filtered by structure, the entries above with a cyano group
SMILES | GLA inh pH 4.5 | miR-21 reporter | Rango release inh | Rango complex inh
CC(C#N)(NC(=O)CN1CCN(S(=O)(=O)c2ccc(Br)cc2Cl)CC1)C1CC1 (stereo not given) | · | · | 0.4% | 0.2%
CCCCc1ccc(Nc2ncccc2C#N)cc1 | 3.9 | -48.1% | 19.6% | 8.1%

Additional records
SMILES | GLA inh pH 4.5 | miR-21 reporter | Rango release inh | Rango complex inh
CCc1ccc2nc(N(CCN(C)C)C(=O)/C=C/c3cccs3)sc2c1 | · | 21.5% | -19.8% | -1.1%
Cc1noc(C)c1COC(=O)[C@@H](NC(=O)c1ccccc1)C(C)C | -1.0 | 0.9% | 14.1% | -0.1%
COc1ccc(Nc2cc(NCCCO)c([N+](=O)[O-])c3nonc23)cc1 | · | -3.6% | -6.1% | -4.4%
O=C1CN(C(=O)c2cccs2)c2ccccc2N1 | -1.7 | -0.4% | -29.3% | 6.6%
CCCCCOC(=O)c1[nH]c2c(c1C)C(=O)CC(c1ccco1)C2 (stereo not given) | 1.7 | 21.2% | 40.9% | -1.0%
CC1=CCC2C(=O)N(c3nc4ccccc4n3C)C(=O)C2C1 (stereo not given) | 9.9 | -2.1% | 4.0% | -1.8%
N#Cc1cccc(S(=O)(=O)NCCOc2ccccc2F)c1 | · | · | -11.0% | -4.4%
Cc1cc(C(=O)NC2CC(C)(C)Cc3c2cnn3-c2cccc(F)c2)nn1C (stereo not given) | · | -2.6% | 41.9% | 2.3%
O=C(CSc1nnc(Cc2ccccc2)n1-c1cccc(Cl)c1)N1CCOCC1 | 2.7 | -5.7% | -7.0% | 0.8%
Cc1nn2c3ccccc3nc2c2ccccc12 | 5.6 | -45.3% | -1.7% | 0.8%
O=C(Nc1ccc(Oc2cccc(C(F)(F)F)c2)nc1)c1ccco1 | 5.6 | 6.6% | 1.0% | 0.7%
Cc1ccc(C)c(SCC(=O)Nc2cccc(S(=O)(=O)N3CCOCC3)c2)c1 | · | · | 15.0% | 2.0%
CC1CCCN(C(=O)COC(=O)c2ccc3[nH]c4c(c3c2)CCCC4)C1 (stereo not given) | · | · | -8.8% | 0.0%
CC(c1ccccc1)N1CCC(CNC(=S)Nc2cccc(Cl)c2)C1 (stereo not given) | -20.4 | 6.6% | 6.3% | 0.2%
O=C1c2ccccc2C(=O)N1CCCc1nc(-c2cccnc2)no1 | -1.7 | -0.4% | 0.1% | -0.8%
O=c1[nH]c(Nc2ccccn2)cc2ccccc12 | · | · | -24.4% | ?
CC(=O)NCCc1nc2ccccc2n1CCc1ccccc1 | -6.9 | 1.4% | ? | 1.6%
Cc1c(C#N)c(N=CN(C)C)c(C(=O)c2ccc(Br)cc2)n1-c1ccc(Cl)cc1 | -4.4 | -1.5% | -1.8% | -4.0%
O=C(CCCc1ccccc1)Nc1ccccc1[N+](=O)[O-] | · | -51.7% | 17.2% | -3.3%
CC(=O)N1N=C(c2ccc(NS(C)(=O)=O)cc2)CC1c1ccc2nccnc2c1 (stereo not given) | 0.6 | -5.2% | -14.0% | 1.4%

Exported with values under each structure: part of the list above
Sequence of screens: GLA inh pH 4.5, miR-21 reporter, Rango release inh, Rango complex inh
> CC1=CCC2C(=O)N(c3nc4ccccc4n3C)C(=O)C2C1 (stereo not given)
→ 9.9, -2.1%, 4.0%, -1.8%
> CCCCCOC(=O)c1[nH]c2c(c1C)C(=O)CC(c1ccco1)C2 (stereo not given)
→ 1.7, 21.2%, 40.9%, -1.0%

(list continues)
SMILES | GLA inh pH 4.5 | miR-21 reporter | Rango release inh | Rango complex inh
O=C(C(O)c1ccccc1)N1N=C(c2ccccc2)CC1(O)C(F)(F)F (stereo not given) | · | -15.6% | 26.8% | 5.5%
COc1cc2c(cc1OC)CN(C(=O)CCc1c[nH]c3ccccc13)[C@H](C(=O)O)C2 | · | 0.0% | -7.6% | -1.7%
CC1(C)N=C(N)N=C(N)N1c1ccccc1 | -0.4 | 6.5% | -4.9% | 0.1%
O=C(Cc1ccc([N+](=O)[O-])cc1)Nc1nccs1 | 3.1 | 4.3% | -1.9% | 8.3%
C[C@@]12CC(=O)NC1N(C(=O)c1cccc(C(F)(F)F)c1)C(c1ccccc1OC(=O)c1cccc(C(F)(F)F)c1)C2 (stereo not given in full) | -11.9 | 8.4% | -6.8% | -2.3%
COc1cccc(C(=O)C2CCCN(Cc3cn[nH]c3C3CCCCC3)C2)c1 (stereo not given) | -7.4 | -7.0% | -1.6% | -5.2%
Cc1cc([N+](=O)[O-])ccc1NC(=O)c1sc2ncn(CC(=O)N3CCOCC3)c(=O)c2c1C | · | 1.1% | -5.7% | -0.1%
Cc1ccc(NC(=S)N/N=C/c2ccc(Cl)c([N+](=O)[O-])c2)cc1 | 1.1 | 3.4% | 1.4% | -0.3%
CCOc1c(Cl)cc(CNc2ccc(N3CCCC3)cc2)cc1OC | 5.0 | 3.1% | -26.3% | ?
CCOC(=O)c1c(NC(=O)CSc2c[nH]c3ccccc23)sc2c1CCC2 | -26.8 | 8.0% | 1.8% | 1.5%
CCC(c1nnnn1C1CCCC1)N1CCN(c2ccccc2)CC1 (stereo not given) | 2.6 | -6.6% | 1.3% | -5.7%
CCCCCNC(=O)c1ccc(NS(=O)(=O)c2ccc3[nH]c(=O)[nH]c3c2)cc1 | · | -2.1% | 2.9% | 0.6%
COc1cccc(C(C(=O)NC2CCCC2)N(C(=O)c2ccco2)c2cccc(C(C)=O)c2)c1OC (stereo not given) | · | 1.8% | 17.3% | 0.7%
COc1cc(N)c(Cl)cc1C(=O)OCC(=O)N1CCc2ccccc21 | · | · | 13.4% | -1.4%
O=C(CNC(=O)c1ccco1)OCC(=O)c1ccccc1 | -2.3 | -3.8% | -0.5% | -2.1%
CC(C)Cc1ccc(C(=O)NCCOc2ccccc2)o1 | · | -27.5% | 12.7% | 1.5%
Cn1cc(CNCc2cn[nH]c2-c2ccc(F)cc2)c(-c2ccc3c(c2)OCCO3)n1 | -7.9 | -0.7% | -2.9% | -3.1%
COc1ccc(N2CCN(C(=O)CN3C(=O)NC4(CCCCC4C)C3=O)CC2)cc1 (stereo not given) | · | · | -3.6% | -0.2%
CCOC(=O)C1(CCOC)CCN(Cc2cc3ccccc3s2)CC1 | · | 7.3% | 9.6% | -1.0%
O=C(CCn1ccnc1)Nc1nc2ccccc2[nH]1 | 2.5 | 0.8% | -4.3% | -0.7%
O=C(N[C@H]1C/C=C\C[C@@H](CC(=O)N(CCO)Cc2ccccc2)C(=O)N2CCC[C@H]2COC1=O)OCC1c2ccccc2-c2ccccc21 | · | · | 9.4% | -5.3%
COc1cccc(-n2ccn(CC(=O)NCCc3ccccc3)c(=O)c2=O)c1 | · | 2.0% | 7.4% | 3.6%
COc1ccc(NC(=O)CSc2nc3ccccc3c(=O)n2Cc2cccs2)c(OC)c1 | -2.3 | 1.7% | · | ·
Cc1ccc(/C=C2\SC(=S)N(CCCC(=O)Nc3cccc(C(=O)O)c3)C2=O)cc1 | · | -5.4% | -0.4% | -6.5%
CCOCCCNC(=O)C1CCC(CNS(=O)(=O)c2ccc(OC)cc2)CC1 (stereo not given) | -6.7 | -2.0% | 13.4% | 2.6%
Cc1nn(CC(O)Cn2c3c(c4ccccc42)CCN(C)C3=O)c(C)c1Br (stereo not given) | 2.8 | 9.9% | 5.5% | 0.3%
CCc1ccccc1NC(=O)C/C(C)=N/NC(=O)COc1ccccc1C | · | -3.2% | -0.4% | -0.1%
COCCn1c(SCC(=O)NCc2ccc(OC)c(OC)c2)nc2ccccc21 | · | 6.3% | -18.6% | -3.2%
O=C(NCC1CCCO1)c1cc(-c2ccccc2)on1 (stereo not given) | -6.1 | -92.9% | -8.7% | 0.0%
O=C(NCc1ccc(F)cc1)C(c1ccc(F)cc1)N(C(=O)c1csnn1)C1CC1 (stereo not given) | · | 0.8% | -17.7% | -0.5%
CCc1nn(CC(=O)NCc2ccccc2Cl)c(=O)c2cccn12 | · | -3.4%&3.7% | 9.0% | -0.8%
Cc1ccc(Cl)cc1NC(=S)N(C)N | 2.4 | 0.5% | 5.5% | -1.1%
O=C(Nc1ccccc1)/C(=C/c1ccc([N+](=O)[O-])cc1)NC(=O)c1ccccc1 | -1.9 | 1.0% | ? | -1.0%
CC12C=CC(=O)C=C1CCC1C2C(=O)CC2(C)C1CCC2(O)C(=O)CO (stereo not given) | · | · | -4.4% | -0.1%
CCN(c1ccccc1)S(=O)(=O)c1ccc(C(=O)NCC2(N(C)C)CCCCC2)cc1 | · | · | 5.4% | -1.0%
CCCCOC(=O)C1=C(C)NC(=O)NC1c1cc2c(cc1Br)OCO2 (stereo not given) | · | 0.3% | 30.3% | -0.5%
Oc1ccc(Br)cc1/C=N/Nc1nc(N2CCCCC2)nc(N2CCOCC2)n1 | -4.5 | -12.5% | 8.6% | -2.8%
COc1ccc(OC)c(C2C(C#N)=C(N)Oc3c2c(C)nn3-c2cccc(Cl)c2)c1 (stereo not given) | -6.8 | 2.0% | -1.6% | -5.1%
O=C(NC(=S)N1CCOCC1)C12CC3CCC(CC(C3)C1)C2 | -0.5 | -4.3% | -2.6% | 4.1%
Cc1cc(-c2cc(C(=O)NC3CCCC3)on2)nc(NC2CCCC2)n1 | -1.7 | 1.5% | -5.5% | 3.8%

Source: PubChem
